Bioassay records (PubChem BioAssay)
Sfp PPTase inh – Sfp phosphopantetheinyl transferase inhibition. AID 1490. 310,000 tested, 3.5% active. Potency, µM, inactives show max response, negative = inhibition, usual class: inhibitors. Biochemical Sfp PPTase activity, qHTS; active = well fitted inhibition curve with a large enough effect; inconclusive = small, poorly fitted or top-dose-only effect, or another doubt; inactive = no such curve, though single readings can be large or run the other way;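 note: the enzyme is Sfp with the accession as filed and its product quenches rhodamine fluorescence; potency is the fitted concentration of half-maximal effect; 0% = enzyme reaction without inhibitor and -100% = no enzyme wells; top concentration of the series not given in the record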
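Step 1, compound plus 15 nM Sfp-PPTase, 15 min, room temperature. Step 2, add rhodamine-CoA (5 uM) and BHQ-2-YbbR (12.5 uM). Step 3, read 525/598 nm fluorescence at 0 and 30 min.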
TRPV1 potentiator – potentiators of human vanilloid receptor 1 (TRPV1); AID 540277; Q8NER1; 320,000 tested, 0.02% active; potentiation, % at 8.33 µM; TRPV1-expressing cells, Fluo-8 calcium influx, capsaicin EC20 potentiation; host cell line not named in the record; control for the full effect not named in the record; active means potentiation above 80%; inconclusive means 30% to 80%; inactive means below 30%; note: 0% is about no effect
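TRPV1-expressing cells were cultured overnight at 35.5C and loaded with Fluo-8 calcium dye for 40 to 90 min at room temperature. After a 10 s baseline, compound was added and calcium influx was read kinetically for 3 min (ex 480/em 520 nm).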
D2 agonist – activates the human D2 dopamine receptor | P14416 | DiscoveRx PathHunter D2 beta-arrestin, luminescence, 90 min; 100% = 57 uM dopamine signal | activation, % (concentration not given with the values) | 360,000 tested, 0.084% active; in the data active = activation above about 40%; inconclusive = about 15% to 40%; inactive = below about 15%; note: compound concentration not given in the record; the text of the record calls up to 30% inactive
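Agonist mode: compounds alone added to overnight-plated D2 PathHunter cells for 90 min at 37 C, with 57 uM final dopamine (EC100) defining full response. Beta-arrestin recruitment detected by chemiluminescent reagent, read after 1 h at ambient temperature.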
CtBP-E1A blk – blocks the CtBP interaction with E1A; AlphaScreen GST-E1A/His-CtBP binding, 1536-well; active compounds read low; control for the full effect not named in the record; activity change, % (no concentration beside the values); 340,000 tested, 0.49% active; in the data active means activity change below about -65%; inconclusive means about -30% to -65%; inactive means above about -30%; note: % is set by controls: 0 for no effect and ±100 for the full control effect
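Steps: dispense buffer (Tris pH 8.0, NaCl 300 mM, TCEP 1 mM, BSA, Tween 20); add 5X protein mix (GST-E1A, His-CtBP, 125 nM each); pin 23 nL compound; 2 h at 37 °C, dark; add 5X beads (50 ug/mL); 1 h; read.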
Six1-Eya2 inh – blocks human Six1 binding to Eya2; activity change, % (concentration not given with the values); AID 651725; Q15475+O00167; AlphaScreen GST-Six1/His-Eya2 binding, biochemical; active compounds read low; control for the full effect not named in the record; 360,000 tested, 0.56% active; in the data active = activity change below about -65%; inconclusive = about -30% to -65%; inactive = above about -30%; note: % is set by controls: 0 for no effect and ±100 for the full control effect
Target sequence (O00167 whole entry, looked up): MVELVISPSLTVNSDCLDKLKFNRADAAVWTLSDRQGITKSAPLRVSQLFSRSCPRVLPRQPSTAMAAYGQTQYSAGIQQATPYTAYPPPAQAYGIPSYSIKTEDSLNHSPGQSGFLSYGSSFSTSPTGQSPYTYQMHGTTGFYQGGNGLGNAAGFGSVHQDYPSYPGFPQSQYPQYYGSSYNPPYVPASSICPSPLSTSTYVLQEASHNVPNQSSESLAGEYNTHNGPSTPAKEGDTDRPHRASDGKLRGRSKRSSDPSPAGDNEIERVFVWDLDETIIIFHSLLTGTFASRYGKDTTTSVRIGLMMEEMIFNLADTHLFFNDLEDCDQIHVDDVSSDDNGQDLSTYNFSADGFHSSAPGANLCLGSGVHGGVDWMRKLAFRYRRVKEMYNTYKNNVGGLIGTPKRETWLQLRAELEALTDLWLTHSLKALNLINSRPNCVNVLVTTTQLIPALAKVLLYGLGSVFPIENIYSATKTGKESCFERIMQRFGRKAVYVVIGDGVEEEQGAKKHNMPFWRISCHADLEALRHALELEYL
Target sequence (Q15475 whole entry, looked up): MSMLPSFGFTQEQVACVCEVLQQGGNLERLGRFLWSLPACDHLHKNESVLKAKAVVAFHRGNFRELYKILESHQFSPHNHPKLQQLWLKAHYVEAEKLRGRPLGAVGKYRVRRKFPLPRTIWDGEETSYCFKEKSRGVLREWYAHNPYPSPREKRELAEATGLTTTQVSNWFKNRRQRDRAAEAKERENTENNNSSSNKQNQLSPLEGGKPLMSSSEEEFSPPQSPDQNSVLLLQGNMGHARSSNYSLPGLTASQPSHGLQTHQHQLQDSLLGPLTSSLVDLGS
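Six1/Eya2 binding was read as AlphaScreen signal after compounds were pinned into GST-Six1 plus His-tagged Eya2 (5X stock 250/500 nM) in pH 8.0 Tris/NaCl/TCEP buffer, beads added, then incubated 1 h, 37 C, dark.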
D2 PAM – potentiates the human D2 dopamine receptor allosterically; P14416; DiscoveRx D2 beta-arrestin cells, luminescence, 90 min; 100% = 57 uM dopamine signal; potentiation, % (concentration not given with the values); 360,000 tested, 0.23% active; AID 624464; active = potentiation of 50% or more; inconclusive = 30% to 50%; inactive = 30% or less;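 note: compound concentration not given in the record; tested on top of an EC20 dose of dopamine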
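D2 cells co-treated with compound plus 50 nM dopamine (EC20) for 90 min at 37 deg C to detect potentiation. Beta-arrestin recruitment was read as enzyme-fragment luminescence after 1 h at ambient temperature. Full response was set by 57 uM dopamine.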
PINK1 expr mod – changes PINK1 expression; PINK1 immunofluorescence, high-content cytometry, 24 h; Potency, µM (titrated, usually from 76.6 µM), without a hit: at the highest dose activation (PINK1 increase), hits mostly activators; 410,000 tested, 0.2% active; AID 624263; active = well fitted activation curve with a large enough effect; inconclusive = small, poorly fitted or top-dose-only effect; inactive = flat fitted curve, though single readings scatter; cell line not stated here;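 note: potency is the fitted concentration of half-maximal effect; % of control where 0% means no effect; nearly all actives have a fitted effect of over 65% in size; a mitochondrial uncoupler was the plate control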
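Stable cell line, 250 cells/well, 12 h attachment; compounds pinned at 5 concentrations, 24 h; CCCP control. Fixed with nuclear dye, primary antibodies 12 h at 10 degrees C, secondary plus cell stain; laser-scanning cytometer read.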
* marks the source's active call; other numbers are inactive results; ? = inconclusive; . = not tested or not shown; [ ] = remark or other dose.

SMILES | Sfp PPTase inh | TRPV1 potentiator | D2 agonist | CtBP-E1A blk | Six1-Eya2 inh | D2 PAM | PINK1 expr mod
NS(=O)(=O)c1ccc(NC(=O)Nc2ccc3c(c2)OCO3)cc1 | 3% | 6 | 1.3 | -5 | -2 | 4 | 0.1%
O=C(Nc1c(C(=O)NCc2ccco2)cnn1-c1ccccc1)c1ccc(F)cc1 | -2% | 2 | -4.8 | -2 | -4 | -19 | 2.8%
CCC1(c2ccccc2)NC(=O)N(CC(=O)N2CCN(S(=O)(=O)c3ccccc3)CC2)C1=O (centres undefined) | -9% | 1 | 1.4 | 0 | 24 | -13 | 2.1%
CCOc1ccc(C(=O)Nc2ccc3[nH]ncc3c2)cc1 | 10% | -17 | -1.8 | . | 0 | -11 | 2.0%
Cc1cc(C)c(S(=O)(=O)NCc2ccncc2)c(C)c1 | 10% | 1 | -3.6 | -1 | -2 | -9 | 1.0%
COc1cccc(CNC(=O)Cn2cccc2)c1 | 5% | . | -0.9 | 3 | 5 | 9 | 1.8%
CCOC(=O)N1CCC(NC(=S)Nc2ccc3nc(N4CCN(C)CC4)cc(C)c3c2)CC1 | -3% | 6 | 0.1 | 0 | 1 | -14 | -0.5%
CCC/C(=C1/C(=O)CC(C)(C)C(C(=O)OC)C1=O)N1CCCC1 (centres undefined) | -5% | 7 | -3.5 | 15 | 0 | 0 | 2.5%
Cc1cc(C)nc(N2CCC(C(=O)O)CC2)n1 | 1% | 4 | -3.9 | -11 | -2 | 0 | 2.2%
CCOC(=O)c1c(NC(=O)CSc2nnc(-c3ccco3)o2)sc(C)c1C | 50µM* | -9 | -3.5 | -4 | -6 | -16 | 0.0%
CC(C)N(Cc1cc2ccccc2[nH]c1=O)C(=O)c1cccnc1 | 24% | 0 | -4.0 | 8 | 0 | 10 | 1.6%
COc1ccc(N(CC(=O)Nc2cc(C(=O)O)ccc2C)S(=O)(=O)c2c(C)noc2C)cc1 | -1% | -4 | -4.6 | 4 | 4 | -23 | 0.0%
NC1=NC(=O)C(Cc2ccc(OC(F)(F)F)cc2)S1 (centres undefined) | 22% | 4 | -2.0 | 2 | 7 | -15 | 2.9%
NC(=S)NNc1cccc(Cl)c1 | 40µM* | 15 | 1.1 | -7 | -6 | 0 | -0.8%
COc1ccc(-c2nnn(CC(=O)N(CCCO)C(C(=O)NC3CCCC3)c3ccc(F)cc3)n2)cc1 (centres undefined) | -6% | -8 | 2.7 | -18 | 9 | -11 | -0.8%
Cc1ccc(-c2nn3c(C)nnc3s2)cc1NC(=O)C(C)C | 22% | . | -0.2 | -8 | 5 | 0 | 0.7%
O=C(CNc1ccccc1Cl)Nc1cc(S(=O)(=O)N2CCOCC2)ccc1Cl | . | -5 | -1.3 | . | 8 | 1 | 3.4%
NC(=O)CCC(NS(=O)(=O)c1ccc(Cl)cc1)C(=O)NCc1ccc(Cl)cc1 (centres undefined) | -7% | -8 | -0.9 | 5 | -1 | -4 | -4.1%
O=C(NCc1ccccn1)C1(C(F)(F)F)C/C(=C\CCO)CCCO1 (centres undefined) | -13% | . | -1.6 | 0 | 1 | -4 | -0.5%
Cc1cc(NC(=O)CS(=O)CC(=O)Nc2c(C)cccc2C)ccc1-n1cnnn1 (centres undefined) | 22% | 14 | 5.1 | 6 | 1 | -2 | 2.3%
COc1cc([C@H]2c3c(cc(OC)c(O)c3OC)C[C@@H](CO)[C@@H]2CO[C@@H]2O[C@H](CO)[C@@H](O)[C@H](O)[C@H]2O)cc(OC)c1O | . | 2 | 1.9 | 4 | 1 | -4 | 1.2%
Cc1ccc(N=C2NC(=O)C(CC(=O)NCc3ccccc3)S2)cc1C (centres undefined) | -14% | 12 | -2.4 | -6 | 0 | -17 | 1.6%
O=c1cc(CN2CCOCC2)c2ccc(O)c(O)c2o1 | 45µM* | ? | 3.3 | . | -1 | -2 | 2.5%
CCOc1ncccc1C(=O)Nc1ccc(C)c(S(=O)(=O)N2CCCCCC2)c1 | . | -13 | -6.0 | 0 | 0 | -6 | 1.6%
Cc1ccccc1-n1nc2c(c1NC(=O)CC(C)C)CS(=O)C2 (centres undefined) | -2% | -2 | -2.3 | 2 | 3 | -4 | -0.5%
CC(CCc1ccccc1)NC(=O)COC(=O)c1ccc(F)cc1 (centres undefined) | -5% | -19 | -3.8 | -3 | -2 | -6 | 0.5%
O=C(Nc1ccccc1C(=O)N1CCOCC1)c1cccnc1 | -13% | -5 | 0.8 | 18 | 2 | -14 | -2.5%[38.3 µM]
O=C(O)CN1C(=O)COc2ccc(S(=O)(=O)N3CCCCCC3)cc21 | 17% | 13 | -5.6 | -14 | 1 | -9 | -0.6%
Cc1nc(C)c(C(=O)Nc2ccccc2)s1 | 19% | 9 | -1.9 | 4 | 5 | -8 | -0.4%
COc1ccc(NC(=O)CN(C)C(=O)c2n[nH]c3ccccc23)cc1 | . | 1 | 0.0 | 7 | 2 | -2 | -2.6%
CCOC(=O)c1c(C)[nH]c(C(=O)COC(=O)c2ccc(O)cc2)c1C | -6% | 7 | 2.2 | -28 | 5 | 3 | -0.9%
C[C@@H]1NC(=O)[C@@]2(C)[C@@H](c3ccccc3)[C@H]3COc4ccccc4[C@@H]3N2C1=O | . | 27 | 0.3 | 9 | 0 | 3 | -0.3%
CCCC(=O)Nc1ccc(C(=O)NNC(=O)c2cccs2)cc1 | 2% | 0 | -2.9 | 4 | 4 | -12 | -1.1%[38.3 µM]
Cc1cc(C)n(C(=O)c2ccc(C)c(S(=O)(=O)N3CCOCC3)c2)n1 | 5% | -1 | -4.8 | 0 | 10 | -1 | -1.4%
COc1ccc(OC)c(S(=O)(=O)NC(=O)C2(C)CCN2C(=O)Cc2ccccc2)c1 (centres undefined) | . | . | -6.0 | 11 | 5 | -6 | 0.6%
Cc1sc2ncnc(N3CCC(C(=O)Nc4cc(Cl)ccc4Cl)CC3)c2c1C | . | 12 | -2.8 | 0 | -17 | -30 | -4.5%
O=c1oc2ccccc2c(NCc2cccc(F)c2)c1[N+](=O)[O-] | -2% | -19 | 0.1 | -17 | -4 | -13 | -2.8%[38.3 µM]
Cc1sc(N)nc1-c1ccc(Oc2ccccc2)cc1 | 0% | -5 | -1.6 | . | -6 | -23 | 5.0%
Cc1noc(C)c1S(=O)(=O)N(CC(=O)Nc1ccc2c(c1)OCCO2)c1ccc(C(C)C)cc1 | 22% | . | -3.5 | 0 | -6 | 7 | 3.5%
CCN(CCn1cccn1)C(=O)CCc1nnc(-c2ccc3c(c2)OCO3)o1 | 2% | -3 | -3.5 | 6 | -1 | -11 | -1.4%

Complete entries, looked up by structure:
CCN(CCn1cccn1)C(=O)CCc1nnc(-c2ccc3c(c2)OCO3)o1 across the screens: Sfp PPTase inh = 2%; TRPV1 potentiator = -3; D2 agonist = -3.5; CtBP-E1A blk = 6; Six1-Eya2 inh = -1; D2 PAM = -11; PINK1 expr mod = -1.4%
O=C(Nc1ccccc1C(=O)N1CCOCC1)c1cccnc1 across the screens: Sfp PPTase inh = -13%; TRPV1 potentiator = -5; D2 agonist = 0.8; CtBP-E1A blk = 18; Six1-Eya2 inh = 2; D2 PAM = -14; PINK1 expr mod = -2.5%[38.3 µM]

Next section.
SMILES | Sfp PPTase inh | TRPV1 potentiator | D2 agonist | CtBP-E1A blk | Six1-Eya2 inh | D2 PAM | PINK1 expr mod
CCOC(=O)N1CCN(C(=O)c2ccc3c(=O)n(Cc4ccc(OC)cc4)c(=S)[nH]c3c2)CC1 | 3% | 16 | -1.9 | -3 | -2 | -7 | 0.8%
Cc1ccccc1NC(=O)N(CCc1nc2ccccc2[nH]1)Cc1ccccc1 | 12% | -18 | -3.3 | 2 | -4 | -35 | -0.1%
CCOc1ccc(NC(=O)CCNS(=O)(=O)c2ccc3c(c2)CC(C)N3C(C)=O)cc1 (centres undefined) | 14% | 2 | -6.6 | 1 | 0 | -3 | 1.0%
CN(Cc1nc2ccc(Cl)cc2[nH]1)Cc1nc(-c2cnccn2)no1 | -3% | -4 | -3.0 | -1 | 5 | 1 | -0.9%
COC(=O)C1NN=C(C(=O)c2ccccc2)C1c1ccccc1 (centres undefined) | -9% | 4 | -4.0 | -8 | -1 | -17 | 1.5%
Cc1ccc(C)c(-c2nnc(NC(=O)Cc3ccccc3)o2)c1 | 24% | -10 | -0.8 | . | 21 | -5 | 2.3%
O=C(CCSc1nccn1Cc1ccccc1)N1CCOCC1 | 14% | 6 | -1.6 | 6 | 4 | -4 | 1.6%[38.3 µM]
Cc1cc2cccc(C)c2nc1SCC(=O)N(C)c1nc(-c2ccccc2)cs1 | 9% | . | -2.9 | 9 | 2 | -8 | 1.3%[38.3 µM]
CCC(CO)NCc1ccc(OCC(=O)Nc2cccc(C(F)(F)F)c2)c(OC)c1 (centres undefined) | -8% | -1 | -3.4 | 5 | -4 | -19 | 0.2%
COc1cccc(C(=O)CN2CCN(S(=O)(=O)c3cccc([N+](=O)[O-])c3)CC2)c1 | -30% | -2 | -2.9 | . | 12 | -2 | -0.2%
CCS(=O)(=O)c1ccc(O)c(NC(=O)c2cc(-c3ccccn3)nc3ccccc23)c1 | . | . | -1.6 | . | -17 | 4 | 2.7%
COc1cc(NC(=O)CCC(=O)N2CCN(S(=O)(=O)c3ccc(C)cc3)CC2)cc(OC)c1 | . | . | -1.3 | -8 | 2 | 3 | -1.6%
Cc1cc(S(=O)(=O)Nc2nc(CN3CCOCC3)nc3sc4c(c23)CCCC4)ccc1F | 0% | -11 | -3.3 | -12 | -2 | 4 | -1.2%
C[C@H]1CN([C@@H](C)CO)C(=O)CCCn2nncc2CO[C@@H]1CN(C)Cc1ccc(Oc2ccccc2)cc1 | . | . | -2.9 | -1 | 14 | -6 | -1.1%
Cc1ccc(CN2CC(C(=O)Nc3ccc4c(C)cc(=O)oc4c3)CC2=O)cc1 (centres undefined) | -14% | 20 | -3.9 | ? | ? | -11 | -0.3%
O=C(Nc1cccc2ncccc12)c1ccccc1F | 19% | -11 | -3.5 | -2 | -2 | -1 | 0.4%
COc1ccc(NC(=O)CCS(=O)(=O)c2ccc3c(c2)CCCN3C(C)=O)cc1Cl | 6% | 3 | -2.9 | -26 | -24 | 2 | 0.3%
O=C(c1cc(F)c(F)cc1Cl)N1CCCc2ccccc21 | -6% | -23 | -3.4 | 1 | -6 | -4 | 2.9%
CC(=O)NCc1cc(-c2nn(C)c(=O)c3ccccc23)ccc1C | 0% | -10 | -4.1 | -1 | 0 | -16 | -0.9%
COc1cc(Oc2nc(C(F)(F)F)nc3ccccc23)ccc1C=O | 16% | 15 | -3.5 | . | 5 | -5 | 3.9%

Random draw from the library; 3.7% or so of the library scored in one or more.
